# Rce1 inhib: inhibitors of yeast Ras-converting enzyme | Q03530 | yeast membranes, quenched prenylated peptide cleavage fluorescence | calls only | hit rate 0.27% among 290,000 | AID 2563;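 active = fall in fluorescence gain of 50% or more versus controls, with final raw signal at or below 3038400; inconclusive = same 50% fall but final raw signal above 3038400; inactive = fall in fluorescence gain under 50%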;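 note: plate controls were neutral control wells for no effect and wells lacking membranes for full effect; tested at 10 µM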
# Target sequence (Q03530 whole entry, looked up): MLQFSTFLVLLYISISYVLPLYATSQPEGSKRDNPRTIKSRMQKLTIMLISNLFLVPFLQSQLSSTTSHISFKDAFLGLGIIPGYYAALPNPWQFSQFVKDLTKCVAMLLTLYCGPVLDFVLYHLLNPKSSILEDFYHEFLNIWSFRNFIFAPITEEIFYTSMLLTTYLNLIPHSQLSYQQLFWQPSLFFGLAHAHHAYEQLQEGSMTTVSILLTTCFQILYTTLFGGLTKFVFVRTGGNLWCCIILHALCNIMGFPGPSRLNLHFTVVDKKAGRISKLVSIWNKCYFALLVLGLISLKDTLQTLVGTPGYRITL
# PABP FP inh: PABP-poly(A) binding inhibition | P11940 | PABP-poly(A) RNA binding, fluorescence polarization | inhibition, % at 35 µM | hit rate 1% among 290,000;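 active = 50% or more with normal probe brightness, or confirmed in later tests; inconclusive = above 50% with abnormal brightness, or retests that disagree; inactive = below 50% or failed in later tests; about a fifth of its hits are not listed in these tables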;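 note: calls also rest on retests at 20 µM and on dose response follow-up; controls were probe without protein and protein plus probe with vehicle; some compounds called inactive have numbers as strong as hits; many hits fall short of the cut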
# Yeast UUG start: modulators of start codon recognition fidelity in yeast; S. cerevisiae UUG-firefly luciferase reporter, luminescence/redox ratio; activity score, % at 18.7 µM; hit rate 0.13% among 350,000; AID 602363;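 active = replicate mean at a twofold rise or more, about +100% in these data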;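 note: firefly luciferase made from a UUG start codon reports start codon fidelity; reporter light over untreated wells divided by growth signal over untreated wells; some hits fall short of that in this replicate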
# eIF4H FP inh: inhibitors of RNA binding by human eIF4H. Q15056. hit rate 0.94% among 290,000. eIF4H fluorescence polarization binding assay. inhibition, % at 35 µM;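 active = 50% or more with normal probe brightness, or confirmed in later tests; inconclusive = above 50% with abnormal brightness, or retests that disagree; inactive = below 50% or failed in later tests; about a fifth of its hits are not listed in these tables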;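 note: calls also rest on retests at 20 µM and on dose response follow-up; 0% = protein and probe with vehicle and 100% = probe without protein; strong numbers were not always called active; many hits fall short of the cut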
# MT1-MMP act inh: blocks activation of human MT1-MMP; hit rate 0.061% among 360,000; AID 651647; GFP/RFP ratio change, % at 20 µM; HT1080 RFP-PRO-GFP cells, GFP/RFP ratio fluorescence, overnight; percent of plate control window, DMSO zero; P50281;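 active = GFP/RFP ratio change of at least 30% with cell ATP level not reduced by more than half and red fluorescence within 50% of control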; note: strong numbers were not always called active
#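 Assay system: HT1080 RFP-PRO-GFP cells | Dosing: 20 µM single dose, 1% DMSO | Incubation: Cells overnight before dosing, compound overnight, 37 °C, 5% CO2 | Evaluation: GFP/RFP fluorescence ratio | Control set: DMSO-only wells and HT1080 RFP-L50D-GFP cell wells as references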
# HIV Env fusion: blocks HIV Env-driven cell-cell fusion. hit rate 1.1% among 360,000. inhibition, % at 12.3 µM. HeLa-JRFL Env/CEM21 cell fusion, luciferase;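 active = mean replicate inhibition score of at least 50 and every replicate individually at or above 50; inconclusive = only one of the two criteria met; inactive = mean below 50 and not all replicates reaching 50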;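 note: 0% = plate neutral controls and 100% = maraviroc near 300 nM; one replicate is shown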
# CSC inhib: blocks cancer stem cells | cancer stem cell-like cells viability, luminescence | inhibition, % at 7.5 µM | hit rate 1.1% among 300,000;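 active = mean at 75% or more and at least half the replicates too; inconclusive = mean and replicates disagree; tested in HMLE shEcad cells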;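 note: 0% = median of negative and 100% = median of positive control wells; the first replicate is given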
# eIF4H FP inh retest: further read-out of eIF4H FP inh, marked with its call; inhibition, %; compound at 20 µM; confirmation average;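 mean of two retest wells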
# PABP FP inh retest: further read-out of PABP FP inh, marked with its call; inhibition, %; compound at 20 µM; confirmation repeats;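 mean of two retest wells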
# MT1-MMP act inh RFP: also measured in MT1-MMP act inh; calls as there; RFP signal change, %; measured here: RFP expression control read;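 0 = vehicle wells; hits needed this value within 50% of zero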
# Starred values were filed as active, the others as inactive; i = inactive; ? = inconclusive; / = not tested or not shown. Only part of the results is shown, so the mix of outcomes need not match the whole.
SMILES,Rce1 inhib,PABP FP inh,Yeast UUG start,eIF4H FP inh,MT1-MMP act inh,MT1-MMP act inh RFP,HIV Env fusion,CSC inhib,others
CCCCNC(=S)N(C)/N=C/c1ccc(OCC(=O)Nc2ccc(OC)cc2)c(OC)c1,i,16,/,-4,-1,-8,26,33,
C=C1CCC[C@]2(C)C[C@H]3OC(=O)C(CN4CC(C)OC(C)C4)[C@H]3C[C@@H]12 (stereo partly drawn),i,9,5,0,2,0,12,0,
CN(C)S(=O)(=O)c1ccc(N2CCOCC2)nc1,i,-3,-21,-9,6,2,-8,14,
COc1cc(CNC(=O)CCC(=O)N2C[C@H]3C[C@H](C2)c2cccc(=O)n2C3)cc(OC)c1OC,i,1,1,4,0,3,/,0,
Cc1ccccc1-n1nc(C(=O)c2cccs2)cc(-c2nc3ccccc3[nH]2)c1=N,/,1,/,5,-33,-8,-374,18,
O=C(c1ccc2c(c1)OCO2)N1CCc2ccccc21,/,4,/,-3,1,0,-5,9,
O=C(CNC(=O)C12CC3CC(CC(C3)C1)C2)OCC(=O)N1CCCCC1,i,/,1,/,2,9,-21,-12,
Cc1ccc2c(COC(=O)C34CC5CC(CC(C5)C3)C4)cc(=O)oc2c1,i,13,6,8,-2,-1,-17,10,
NC(=O)c1ccsc1NC(=O)C1CCN(S(=O)(=O)c2cccs2)CC1,i,/,/,/,2,2,-79,-9,
CCCc1c(C(=O)N2CCN(c3ccccc3OC)CC2)cnn1-c1ccccc1,i,2,/,-1,5,-2,6,7,

# Ordered by length of the SMILES (rising): three of the compounds above
SMILES,Rce1 inhib,PABP FP inh,Yeast UUG start,eIF4H FP inh,MT1-MMP act inh,MT1-MMP act inh RFP,HIV Env fusion,CSC inhib,others
O=C(CNC(=O)C12CC3CC(CC(C3)C1)C2)OCC(=O)N1CCCCC1,i,/,1,/,2,9,-21,-12,
Cc1ccc2c(COC(=O)C34CC5CC(CC(C5)C3)C4)cc(=O)oc2c1,i,13,6,8,-2,-1,-17,10,
Cc1ccccc1-n1nc(C(=O)c2cccs2)cc(-c2nc3ccccc3[nH]2)c1=N,/,1,/,5,-33,-8,-374,18,

# Carrying on.
SMILES,Rce1 inhib,PABP FP inh,Yeast UUG start,eIF4H FP inh,MT1-MMP act inh,MT1-MMP act inh RFP,HIV Env fusion,CSC inhib,others
CC(C)n1cnc2c(NCc3ccccc3)cc(N[C@H](C)CO)cc21,/,/,-10,/,-146,-7,/,124*,
CC(=O)NC(CCS(C)(=O)=O)C(=O)N1CCc2ccccc21 (stereo not drawn),i,-1,-8,-5,-7,3,/,-9,
Cc1cc(C)c2nc(C)cc(Nc3ccc(C(=O)NCCO)cc3)c2c1,i,1,-30,0,-1,1,-19,-4,
O=C(Nc1ccc(F)c(Cl)c1)c1csc([C@@H]2O[C@H](CO)[C@H](O)[C@H](O)[C@H]2O)n1,/,/,-22,/,1,1,1,/,
C/C(=N\NC1=NCCN1)c1ccccc1,i,-12,-3,-3,4,2,5,-17,
O=C(Cc1ccccc1[N+](=O)[O-])OCC(=O)c1c[nH]c2ccccc12,i,/,/,/,3,2,-36,-16,
COCCn1c(C)cc(/C=C(\C#N)C(=O)OCC(=O)Nc2ccc(S(N)(=O)=O)cc2)c1C,/,/,-3,/,0,-2,-2,/,
O=C(O)CNc1nc(Cl)ccc1[N+](=O)[O-],i,-6,-9,-2,-1,-3,-260,4,
CC1C(=O)N(Cc2cn(CCC3OCCCO3)nn2)CCS(=O)(=O)N1Cc1ccc(-c2cccc(CO)c2)cc1 (stereo not drawn),/,/,7,/,-1,0,-27,/,
O=c1oc2ccccc2cc1-c1ccc(O)cc1,i,-2,/,9,5,5,-43,4,
COc1ccc(N2CCN(C(=O)CN(c3ccccc3)S(C)(=O)=O)CC2)cc1,i,-1,/,-3,0,5,/,-8,
COc1cccc(C(=O)Nc2ccc(NC(=O)C(C)C)nc2)c1,i,-3,-9,-1,12,6,/,-1,
CC(NCCO)C(=O)C12CC3CC(CC(C3)C1)C2 (stereo not drawn),i,1,-14,-5,1,3,-22,23,
C/C=C(\C)CN1CCC(n2nccc2NC(=O)c2ccc(OC)cc2)CC1,i,1,-2,5,-3,0,/,7,
Cc1ccc(NC(=O)N2CCCC2C(=O)Nc2ccc3c(c2)OCCO3)cc1 (stereo not drawn),i,11,-14,-9,1,3,-4,-28,
O=C(CSc1ccccc1)NCCSCc1ccccc1,i,-5,-19,-7,4,3,-9,-1,
Cc1cc2nnc(SCC(=O)N3CCOCC3)n2c2ccccc12,i,-7,-16,-5,4,1,-10,-5,
CCCCc1cc(=O)oc2c(CN(C)C)c(O)c(Cl)cc12,?,21,-11,26,-6,-1,-2,-1,
Cc1ccc2nc(SCC(=O)Nc3ccccc3N3CCOCC3)c(C#N)cc2c1,/,17,-5,3,-77,-5,/,53,
C#CCOc1c(Cl)cc(/C=N/O)cc1OC,i,37,/,3,-4,2,-4,25,

# The closing 4 entries of the part before open the next one:
SMILES,Rce1 inhib,PABP FP inh,Yeast UUG start,eIF4H FP inh,MT1-MMP act inh,MT1-MMP act inh RFP,HIV Env fusion,CSC inhib,others
Cc1cc2nnc(SCC(=O)N3CCOCC3)n2c2ccccc12,i,-7,-16,-5,4,1,-10,-5,
CCCCc1cc(=O)oc2c(CN(C)C)c(O)c(Cl)cc12,?,21,-11,26,-6,-1,-2,-1,
Cc1ccc2nc(SCC(=O)Nc3ccccc3N3CCOCC3)c(C#N)cc2c1,/,17,-5,3,-77,-5,/,53,
C#CCOc1c(Cl)cc(/C=N/O)cc1OC,i,37,/,3,-4,2,-4,25,
CCCCn1c(SCC(=O)Nc2ccc(NC(C)=O)cc2)nc2ccccc2c1=O,/,2,-5,-9,2,0,-14,8,
CCc1ccc(-c2ccc(SCC(=O)NC3CCCC3)nn2)cc1,/,/,-15,/,-2,-10,-21,/,
O=C(OCC(=O)N(CCc1ccccc1)Cc1ccccc1)c1cc(S(=O)(=O)N2CCOCC2)ccc1F,i,/,-16,/,5,4,/,-5,
COCCNC(=O)c1ccccc1NC(=O)c1ccc(OC)c(OC)c1,i,5,0,-4,17,-1,-53,-6,
COc1c(F)c(F)c(C(=O)Nc2c(C)cc(Br)cc2C)c(F)c1F,i,4,17,0,0,-3,1,-9,
O=C(NC(=S)Nc1cc(C(F)(F)F)ccc1N1CCOCC1)c1ccc(-c2cccc(Cl)c2)o1,i,-3,/,-7,-12,0,/,-13,
O=C(CSc1nnc2ccc(-c3ccccn3)nn12)Nc1ccc(F)cc1,/,/,-18,/,6,2,5,/,
CSc1ccc(CN2CCC2(C)C(=O)Nc2cnc3ccccc3c2)cc1 (stereo not drawn),/,/,14,/,4,-2,-8,/,
CS(=O)(=O)N1N=C(c2ccco2)CC1c1ccco1 (stereo not drawn),i,37*,-12,78*,-8,-4,0,-5,eIF4H FP inh retest=103*;PABP FP inh retest=75*
COc1ccc(S(=O)(=O)Nc2ccccn2)cc1C(=O)Nc1ccccc1,i,-2,-9,15,3,7,28,-14,
CC(C)CCNC(=O)CN(C)S(=O)(=O)c1cccc2nsnc12,i,0,-24,4,-1,2,-94,-8,
CCC1(C)Cc2nc(Cl)c(C#N)cc2CO1 (stereo not drawn),i,-5,-13,6,-1,3,-3,1,
NS(=O)(=O)c1ccc(NNC(=O)c2cccs2)cc1,i,-4,/,6,-2,3,19,-2,
c1csc(CNc2ncnc3ccc(-c4ccc5c(c4)OCCO5)cc23)c1,/,/,-14,/,1,-2,34,/,
CCOc1cc(S(=O)(=O)NCc2ccccn2)c(C)cc1C,i,3,/,58,/,/,-6,-10,eIF4H FP inh retest=35;PABP FP inh retest=19
COc1cc(C(C)=O)ccc1OCC(=O)N(CCC1=CCCCC1)c1c(N)n(Cc2ccccc2)c(=O)[nH]c1=O,i,/,-1,/,4,1,-24,/,
O=C(COC(=O)CCSc1ccccc1)Nc1ccc(F)cc1Cl,i,2,-5,-8,0,0,15,-4,
CCOc1ccc2[nH]cc(C(=O)NCc3ccccc3)c(=O)c2c1,i,3,-3,4,1,-23,-11,65,
O=C(O)C1(Nc2ccccc2Cl)CCCC1,/,/,-11,/,-3,-1,12,/,
COc1cccc(NC(=O)c2cccc(C)c2[N+](=O)[O-])c1,i,7,/,0,4,9,-6,15,
COc1ccc(NC(=O)c2ccc(NC(=O)CN3CCC(C(N)=O)CC3)cc2)cc1,/,/,-9,/,1,1,/,4,
O=C(CN1CCC(n2nnc3ccccc32)CC1)NCc1cccs1,i,-3,-20,4,0,3,12,4,
COc1ccc(NC(=O)c2ccc(-c3ccccc3)cc2)cc1S(=O)(=O)N1CCOCC1,i,3,/,-9,-2,-21,23,2,
CC(C)OC(=O)c1cc(NC(=O)C2C3C=CC(O3)C2C(=O)O)cc(C(=O)OC(C)C)c1 (stereo not drawn),i,-8,-3,-5,-3,-3,30,-2,
COc1ccc(S(=O)(=O)NCCOc2ccccc2)cc1OC,i,-1,-7,8,6,6,26,6,
Cc1cc(C)c(-c2csc(NC(=O)COC(=O)c3ccc4c(c3)OCO4)n2)c(C)c1,i,4,/,1,-21,-14,1,-9,

# Screening results as filed in PubChem BioAssay.
